Bioassay records (PubChem BioAssay)
Sa growth 42C: blocks Staphylococcus aureus growth. 170,000 compounds, 0.53% hits. S. aureus RN4220 growth, OD600, 20 h, 42 °C; stronger effect = lower value. relative growth, % (test concentration not listed). AID 720641;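 active = growth at 42 °C up to 50% and 20 or more points under that at 30 °C, or under 10% at both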;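 also: 300 nL library stock went into each well; scaled to the means of positive and negative controls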
GIV Gai3 FP: inhibitors of GIV GBA-motif binding to rat Galpha-i3; Galpha-i3/FITC-GIV peptide fluorescence polarization, 90 min; stronger effect = lower value; scaled: aluminum fluoride 0%, vehicle 100%; percent of control (FP), % (concentration not given with the values); 210,000 compounds, 0.42% hits; AID 1224905;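 active = replicate mean at 85% of control or lower, very high polarization wells dropped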;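 also: wells of about 15 µL received 100 nL stock; the first replicate is given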
Target sequence (P08753 whole entry, looked up): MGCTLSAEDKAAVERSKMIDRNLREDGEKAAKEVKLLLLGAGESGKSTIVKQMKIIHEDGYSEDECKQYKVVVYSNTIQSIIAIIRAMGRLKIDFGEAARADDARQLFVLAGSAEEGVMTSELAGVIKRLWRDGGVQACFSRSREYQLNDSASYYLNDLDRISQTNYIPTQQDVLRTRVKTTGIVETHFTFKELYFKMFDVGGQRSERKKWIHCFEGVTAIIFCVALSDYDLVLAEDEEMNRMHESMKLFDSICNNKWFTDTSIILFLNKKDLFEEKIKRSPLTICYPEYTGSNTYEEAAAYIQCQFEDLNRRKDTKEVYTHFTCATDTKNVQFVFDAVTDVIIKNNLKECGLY
HCMV NEC inh: cytomegalovirus nuclear egress complex inhibition; HTRF UL50-UL53 interaction, normalized percent inhibition; inhibition, % (no concentration beside the values); 190,000 compounds, 0.15% hits;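 active = both replicates at 50% or more, plus weaker picks with an unusually low signal ratio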;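 also: stock transfer was 100 nL into about 20 µL; 0% = negative control wells and 100% = wells with untagged competitor protein; inactives centre near -12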
Sa growth 42C second temp: further read-out of Sa growth 42C, marked with its call; relative growth, %; measured here: growth at 30 °C;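 optical density after 20 h as mean of two plates; 100% = untreated growth and lower means inhibition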
* hit, by the source's call; / = no result given.

Start of the data: the first 2 records, to show the layout:
nr	Molecule	Sa growth 42C	GIV Gai3 FP	Sa growth 42C second temp	HCMV NEC inh
1	[O-]/[N+](=C/c1ccc(F)cc1)c1ccccc1	87	105	27	-51
2	COc1ccccc1-c1nn2c(-c3cccnc3)nnc2s1	/	109	/	-9

The listing, from the first entry:
nr	Molecule	Sa growth 42C	GIV Gai3 FP	Sa growth 42C second temp	HCMV NEC inh
1	[O-]/[N+](=C/c1ccc(F)cc1)c1ccccc1	87	105	27	-51
2	COc1ccccc1-c1nn2c(-c3cccnc3)nnc2s1	/	109	/	-9
3	CCOC(=O)C1CCCN(C(=O)CN2C(=O)/C(=C/c3ccc(OC)cc3)Oc3ccccc32)C1 (stereo not drawn)	108	110	93	-12
4	NC(=O)c1cc(NC(=O)COC(=O)C2CCCCC2)cc(C(N)=O)c1	86	/	85	-27
5	Cc1ccc(OCc2n[nH]c(=S)n2C2CCCCC2)cc1	99	98	95	-7
6	CCOc1ccc(N(C)C(=O)CS(=O)(=O)c2cccc3nsnc23)cc1	95	111	89	/
7	CCCNC(=O)c1cnc2sccn2c1=O	/	109	/	-20
8	CCc1ccc(N2C(=O)CN(S(=O)(=O)CC)CC2(C)C(=O)NC2CCCCC2)cc1 (stereo not drawn)	92	101	93	/
9	CC(=O)OC1CC(C)(C)N(OC(=O)c2ccc(-n3cnnn3)cc2)C(C)(C)C1	101	/	96	7
10	CCn1c(CN2CCCCC2)nc2cc(NC(=O)COc3ccc([N+](=O)[O-])cc3)ccc21	113	101	89	-26
11	CSc1ccc(C2Nc3ccccc3C(=O)N2c2ccc(C)cc2)cc1 (stereo not drawn)	112	101	110	/
12	O=C(CCc1nc2ccccc2n1-c1ccccc1)NCCO	87	/	84	-16
13	CCC(CC)C(=O)Nc1ccc(-c2cn3cccnc3n2)cc1	103	101	86	-58
14	CCCCC(=O)Nc1ncc(Br)s1	115	101	100	1
15	O=C1Nc2ccccc2C1(O)C/C(=N/O)c1ccc2c(c1)OCCO2 (stereo not drawn)	80	99	85	-29
16	O=C(CCC1CC(=O)Nc2ccccc21)NCCC1=CCCCC1 (stereo not drawn)	103	98	83	-13
17	O=C(CN1C(=O)CCCc2ccccc21)NCc1cccnc1	/	105	/	-3
18	Cc1ccc(NC(=O)NCCC(C)C)cc1NC(=O)NCCC(C)C	75	/	96	-28
19	O=C(CSc1nn2cnnc2s1)N(C1CCCCC1)C1CCCCC1	92	104	84	/
20	CCN=C1SC(CC(=O)Nc2ccccc2C#N)C(=O)N1CC (stereo not drawn)	/	98	/	-24
21	Cc1c(C(=O)OC2CCC(C)CC2)[nH]c2c1C(=O)CC(c1ccc(F)cc1)C2 (stereo not drawn)	94	103	88	-6
22	O=C(NC1CCCCC1)c1ccc2ccccc2n1	91	102	81	-19
23	CC(C)Cn1c(=O)c2ccccc2n2c(-c3cc(Cl)ccc3O)nnc12	92	104	73	-21
24	O=C(Nc1ccc(N2CCN(C3CCCCC3)CC2)cc1C(=O)O)c1ccccc1Cl	/	103	/	-23
25	Nc1nnc(Sc2nc3cc(Cl)ccc3s2)s1	105	104	100	9
26	CSc1cccc(NS(=O)(=O)c2cn(C)c(C)n2)c1	88	94	90	/
27	CC1=C(c2ccc(C)c(C)c2)S(=O)(=O)N=C1N1CCC(C(=O)NCCc2ccc(Cl)cc2)CC1	99	107	92	-7
28	O=S(=O)(c1ccccc1)N1CCC(c2nc(-c3ccccc3)no2)CC1	94	101	97	-26
29	CCCCSc1nnc(-c2ccco2)n1N	97	102	91	-17
30	O=C(c1cc(F)cc2c1OCOC2)N1CCN(C(c2ccccc2)c2ccccc2)CC1	69	108	66	0
31	O=C(Cn1nc2n(CCc3ccccc3)c(=O)c3ccccc3n2c1=O)NCc1ccccc1	/	104	/	-16
32	N#Cc1ccc(NC(=O)Cn2cnnn2)cc1	91	/	97	-15
33	CCC1Oc2ccc(C)cc2NC1=S (stereo not drawn)	98	109	80	/
34	Cc1ccc(/C=C2\C(=O)Nc3ccc(S(=O)(=O)Nc4ccc(F)cc4)cc32)o1	103	/	106	4
35	O=C(CSC1CCCC1)c1ccccc1	98	/	100	6
36	O=C(NCCn1cnc2cccnc21)Nc1ccccc1-c1ccccc1	108	103	85	-4
37	O=C(COc1ccc(Cl)cc1Cl)OCC(=O)N1CCCc2ccccc21	120	/	91	-18
38	Cc1ccc(S(=O)(=O)Nc2ccc3nc(-c4ccc(F)cc4)oc3c2)cc1	94	103	78	-3
39	O=S(=O)(c1ccc(NCCCn2ccnc2)nc1)N1CCCC1	105	/	92	-24
40	CS(=O)(=O)Nc1cc(Cl)ccc1Oc1ccccc1	92	111	92	-3
41	O=C(Cn1c(-c2cccs2)cc2cc(F)ccc21)N1CCCCC1	103	105	93	/
42	CCCc1ncc(C(O)c2ccccc2OC)n1C (stereo not drawn)	94	107	93	-45
43	COc1cc(C=Nc2ccc(Cl)cc2)ccc1OC(=O)C1CC1	109	103	86	-1
44	Cc1cc(C)c(C#N)c(SCC(=O)N(Cc2ccccc2)Cc2ccccc2)n1	94	106	82	-2
45	Cc1cccc(C2C3=C(CC(c4ccccc4)CC3=O)Nc3onc(C)c32)c1 (stereo not drawn)	/	106	/	-19
46	NNC(=O)c1ccc(CSc2nc3ccccc3[nH]2)cc1	96	/	96	5
47	Cn1/c(=N/N=C2\C(=O)Nc3c(Cl)cc(Cl)cc32)sc2ccccc21	91	/	93	-1
48	Cc1nc(N(C)c2ccc(C(C)C)cc2)c2c(C)c(C(=O)O)sc2n1	/	106	/	-7
49	CCc1c(C)nc2c(C)cccc2c1Cl	125	107	113	3
50	CCC1(CC)OC(c2ccccn2)Nc2ccccc21 (stereo not drawn)	92	100	80	-6
51	CSC(=CC(=O)c1ccccn1)SC	73	101	49	-99
52	CNC(=S)Nc1ccc(C(N)=O)cc1	94	105	101	7
53	COc1ccccc1C1C(C(=O)Nc2ccccc2)=C(C)Nc2nc(-c3ccccc3)nn21 (stereo not drawn)	115	104	95	-7
54	CCN1CCN(c2cc(C(=O)O)c3cc(NS(=O)(=O)c4c(C)cc(C)cc4C)ccc3n2)CC1	/	98	/	-35
55	CC(C#N)OC(=O)c1cc(S(C)(=O)=O)ccc1Cl (stereo not drawn)	74	/	89	-28
56	CC(C(=O)O)N1C(=O)c2ccccc2C1=O (stereo not drawn)	94	106	93	-12
57	O=C(NCc1ccc2c(c1)CCN2C(=O)c1ccncc1)c1cccc(F)c1	118	101	84	/
58	O=C1COc2ccc(C(=O)N3CCc4ccccc43)cc2N1	/	99	/	10
59	CC(C)c1ccc(OCC(=O)Nc2cc(-c3nc4ncccc4o3)ccc2Cl)cc1	98	101	100	0
60	CN(C(=O)CSc1nncc2ccccc12)C1CCCCC1	114	/	98	0

(next part)
nr	Molecule	Sa growth 42C	GIV Gai3 FP	Sa growth 42C second temp	HCMV NEC inh
61	CCOC(=O)c1c(C)[nH]c(C)c1S(=O)(=O)N(C)CC(=O)Nc1cccc(C(F)(F)F)c1	80	108	93	/
62	O=C(CCCc1nc(-c2ccccc2)no1)Nc1nc(-c2ccccc2)cs1	/	103	/	-12
63	Cc1ccc(Cn2ccsc2=NC(=O)COC(=O)Cn2c(C)csc2=O)cc1	107	/	96	-5
64	COC(=O)c1cc(NC(=O)c2ccc3c(=O)n4c(nc3c2)CCCCC4)cc(C(=O)OC)c1	98	102	82	1
65	Cc1ccc(-c2nnc(N3CCOCC3)c3ccccc23)cc1S(=O)(=O)N1CCOCC1	/	97	/	-12
66	O=C(Cc1ccc(Cl)cc1)NCCc1csc2nc(-c3cccc(F)c3)nn12	/	98	/	-10
67	Cc1ccc(S(=O)(=O)NCCc2cn3c(C)csc3n2)cc1	123	110	90	/
68	COc1ccc2o/c(=N\O)c(C(N)=O)cc2c1	64	97	21	-56
69	O=C(Oc1nc2ccccc2s1)c1ccccc1C(=O)c1ccccc1	103	/	96	0
70	COc1ccccc1CNC(=O)c1ccccc1NC(=O)c1nsc2ccccc12	98	106	85	/
71	CCN(c1ccc(OC)cc1)S(=O)(=O)c1nnc(NC(=O)c2ccccc2C)s1	76	107	79	-6
72	COC(=O)c1sccc1NC(=O)C1CCN(c2ccc(=O)n(-c3ccc(F)cc3)n2)CC1	/	102	/	-63
73	CCc1nc2ccc(C(=O)N3CCN(c4cccc(C)c4C)CC3)cc2nc1CC	96	97	94	/
74	O=c1[nH]ccn(-c2ccc(O)cc2)c1=O	/	100	/	-50
75	Cc1cc(=O)[nH]c(Nc2nc3ccccc3[nH]2)n1	96	99	74	-1
76	Fc1ccc(-c2ccnc3ncnn23)cc1	/	103	/	-17
77	Cn1cc(Cl)c(C(=O)NCC(=O)c2ccccc2)n1	99	104	84	/
78	CCOc1ccccc1NC(=O)c1sc2nc3n(c(=O)c2c1C)CCCCC3	99	95	86	-14
79	CNS(=O)(=O)c1cc(C(=O)N2CCN(c3ccccc3)CC2)ccc1OC	94	107	100	-17
80	Cc1cccn2c(=O)c3cc(C#N)c(=O)n(-c4nnc(SCc5ccccc5F)s4)c3nc12	108	104	74	-31

Another view of some results above:
Order of values: Sa growth 42C, GIV Gai3 FP, Sa growth 42C second temp, HCMV NEC inh
54) CCN1CCN(c2cc(C(=O)O)c3cc(NS(=O)(=O)c4c(C)cc(C)cc4C)ccc3n2)CC1
→ /, 98, /, -35
55) CC(C#N)OC(=O)c1cc(S(C)(=O)=O)ccc1Cl (stereo not drawn)
→ 74, /, 89, -28
56) CC(C(=O)O)N1C(=O)c2ccccc2C1=O (stereo not drawn)
→ 94, 106, 93, -12
57) O=C(NCc1ccc2c(c1)CCN2C(=O)c1ccncc1)c1cccc(F)c1
→ 118, 101, 84, /
58) O=C1COc2ccc(C(=O)N3CCc4ccccc43)cc2N1
→ /, 99, /, 10
59) CC(C)c1ccc(OCC(=O)Nc2cc(-c3nc4ncccc4o3)ccc2Cl)cc1
→ 98, 101, 100, 0
60) CN(C(=O)CSc1nncc2ccccc12)C1CCCCC1
→ 114, /, 98, 0
61) CCOC(=O)c1c(C)[nH]c(C)c1S(=O)(=O)N(C)CC(=O)Nc1cccc(C(F)(F)F)c1
→ 80, 108, 93, /
62) O=C(CCCc1nc(-c2ccccc2)no1)Nc1nc(-c2ccccc2)cs1
→ /, 103, /, -12
63) Cc1ccc(Cn2ccsc2=NC(=O)COC(=O)Cn2c(C)csc2=O)cc1
→ 107, /, 96, -5
64) COC(=O)c1cc(NC(=O)c2ccc3c(=O)n4c(nc3c2)CCCCC4)cc(C(=O)OC)c1
→ 98, 102, 82, 1
65) Cc1ccc(-c2nnc(N3CCOCC3)c3ccccc23)cc1S(=O)(=O)N1CCOCC1
→ /, 97, /, -12
66) O=C(Cc1ccc(Cl)cc1)NCCc1csc2nc(-c3cccc(F)c3)nn12
→ /, 98, /, -10
67) Cc1ccc(S(=O)(=O)NCCc2cn3c(C)csc3n2)cc1
→ 123, 110, 90, /
68) COc1ccc2o/c(=N\O)c(C(N)=O)cc2c1
→ 64, 97, 21, -56
69) O=C(Oc1nc2ccccc2s1)c1ccccc1C(=O)c1ccccc1
→ 103, /, 96, 0
70) COc1ccccc1CNC(=O)c1ccccc1NC(=O)c1nsc2ccccc12
→ 98, 106, 85, /
71) CCN(c1ccc(OC)cc1)S(=O)(=O)c1nnc(NC(=O)c2ccccc2C)s1
→ 76, 107, 79, -6
72) COC(=O)c1sccc1NC(=O)C1CCN(c2ccc(=O)n(-c3ccc(F)cc3)n2)CC1
→ /, 102, /, -63
73) CCc1nc2ccc(C(=O)N3CCN(c4cccc(C)c4C)CC3)cc2nc1CC
→ 96, 97, 94, /
74) O=c1[nH]ccn(-c2ccc(O)cc2)c1=O
→ /, 100, /, -50
75) Cc1cc(=O)[nH]c(Nc2nc3ccccc3[nH]2)n1
→ 96, 99, 74, -1
76) Fc1ccc(-c2ccnc3ncnn23)cc1
→ /, 103, /, -17
77) Cn1cc(Cl)c(C(=O)NCC(=O)c2ccccc2)n1
→ 99, 104, 84, /
78) CCOc1ccccc1NC(=O)c1sc2nc3n(c(=O)c2c1C)CCCCC3
→ 99, 95, 86, -14
79) CNS(=O)(=O)c1cc(C(=O)N2CCN(c3ccccc3)CC2)ccc1OC
→ 94, 107, 100, -17
80) Cc1cccn2c(=O)c3cc(C#N)c(=O)n(-c4nnc(SCc5ccccc5F)s4)c3nc12
→ 108, 104, 74, -31
